Screens as filed in PubChem BioAssay.
UCH37 inh = human UCH37 deubiquitinating enzyme inhibition | purified proteasome/UCH37, Ub-AMC cleavage fluorescence | Q9Y5K5 | inhibition, % (concentration not given with the values) | 330,000 compounds, 0.33% hits | AID 588478;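 active means mean of two replicates above 20%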;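 further: 0% = compound-free wells with enzyme and 100% = wells lacking proteasome; stock transfer was 100 nL into about 20 µL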
Target sequence (Q9Y5K5 whole entry, looked up): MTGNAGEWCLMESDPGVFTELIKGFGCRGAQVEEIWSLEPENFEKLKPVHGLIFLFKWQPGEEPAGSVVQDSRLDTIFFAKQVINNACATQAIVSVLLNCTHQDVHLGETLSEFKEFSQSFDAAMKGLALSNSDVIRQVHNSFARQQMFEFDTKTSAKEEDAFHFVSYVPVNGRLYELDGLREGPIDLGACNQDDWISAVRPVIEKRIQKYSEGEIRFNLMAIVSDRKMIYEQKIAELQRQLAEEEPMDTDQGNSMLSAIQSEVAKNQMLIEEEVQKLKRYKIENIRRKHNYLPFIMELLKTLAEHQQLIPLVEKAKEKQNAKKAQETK
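System: Proteasome-associated human UCH37 deubiquitinase; Input: 0.15 nM proteasome in added enzyme buffer; Also added: Ub-AMC substrate from 1 µM stock; Incubation: 30 min compound-proteasome preincubation then 25 min substrate reaction, room temperature; Detection: fluorescence, ex 355 nm, em 460 nm; Read-out: % inhibition of Ub-AMC cleavage fluorescence; Benchmarks: no-proteasome and no-compound wells.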
AF4-AF9 inh = blocks AF4 peptide binding to human AF9; P42568; inhibition, % at 10 µM; AlphaScreen, biotin-AF4 peptide binding to FLAG-AF9; AID 651704; 350,000 compounds, 0.47% hits;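 active means every replicate reaching a set inhibition limit, whatever the replicate mean, cut at about 25% in these data; inconclusive means mean inhibition reaches that limit but some replicates miss it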;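 further: 0% = plate neutral control median and 100% = total signal loss; the record names both 10 and 1 µM as test concentration; the first replicate is given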
HNF4A DNA FP = change in binding of human HNF4 alpha to DNA; P41235; HNF4a-FITC DNA binding, fluorescence polarization, 1 h; activity change, % at 10 µM; 360,000 compounds, 0.3% hits; in the data active means activity change above about 30%, passing the limit was not always enough;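 further: controls were the assay level and a saturating level of protein; the project sought stronger binding though the title names inhibitors; some compounds called inactive have numbers as strong as hits; positive values seem to mean higher polarization but the record does not say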
Target sequence (P41235 whole entry, looked up): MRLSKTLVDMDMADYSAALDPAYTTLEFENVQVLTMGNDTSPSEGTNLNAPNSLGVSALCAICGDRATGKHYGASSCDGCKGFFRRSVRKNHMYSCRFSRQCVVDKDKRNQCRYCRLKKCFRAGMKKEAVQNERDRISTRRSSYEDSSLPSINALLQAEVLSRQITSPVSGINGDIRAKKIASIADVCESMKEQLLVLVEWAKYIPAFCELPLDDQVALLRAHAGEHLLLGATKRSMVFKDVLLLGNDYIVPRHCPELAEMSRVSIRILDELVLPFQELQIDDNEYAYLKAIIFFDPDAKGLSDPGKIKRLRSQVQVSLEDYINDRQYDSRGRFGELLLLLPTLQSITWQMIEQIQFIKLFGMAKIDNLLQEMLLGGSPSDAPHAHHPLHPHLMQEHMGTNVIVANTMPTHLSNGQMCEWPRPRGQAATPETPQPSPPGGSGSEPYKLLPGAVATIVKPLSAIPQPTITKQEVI
RanGTP-Impb inh = inhibitors of RanGTP-importin-beta interaction, primary screen, biochemical, FRET, CFP-Ran, YFP-importin-beta, homogeneous; inhibition, % (no concentration beside the values); cell-free CFP-Ran/YFP-importin-beta FRET ratio; 300,000 compounds, 1.1% hits;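 active means most replicates above 15%; inconclusive means exactly half above 15%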;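 further: 0% = DMSO wells and 100% = Ran loaded with GDP instead of GTP; wells of about 40 µL received 100 nL stock; the first replicate is given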
E coli growth = inhibitors of Escherichia coli growth; OD600, 23 h; stronger effect = lower value; OD600 absorbance (concentration not given with the values); 330,000 compounds, 0.21% hits;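 active means OD600 absorbance below the run mean of sample wells minus 3.6 SD, in any replicate, cut at about 0.56 in these data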;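 further: stock transfer was 300 nL into about 60 µL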
Vif A3G = HIV-1 Vif–A3G interaction blockers – biochemical, TR-FRET, GST-Vif 1-94, biotin-A3G peptide, dose response retest, primary screen (AID 1117319). inhibition, %, or IC50 in µM where a hit was titrated. TR-FRET GST-Vif / biotin-A3G peptide binding; higher % means a stronger effect; test concentration not given here; strong numbers were not always called active. 260,000 compounds, 0.57% hits;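 active means above the screen mean plus three standard deviations and confirmed in dose response; inconclusive means results disagree or hit not tested in dose response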;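 further: Vif residues 1-94 fused to GST binding biotinylated APOBEC3G peptide 110-148; 0% = full assay without inhibitor and 100% = GST in place of GST-Vif; retest series ran down from 100 µM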
FGF22 binding = binders of recombinant human FGF22 by thermal shift. SYPRO orange fluorescence; percent of sucrose octasulfate shift, DMSO zero. calls only at 9.99 µM. 340,000 compounds, 1.5% hits. AID 651658;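 active means melting point raised past a set limit in the mean and every replicate; inconclusive means no clear call; three in four hits are not shown here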
Target sequence (Q9HCT0 whole entry, looked up): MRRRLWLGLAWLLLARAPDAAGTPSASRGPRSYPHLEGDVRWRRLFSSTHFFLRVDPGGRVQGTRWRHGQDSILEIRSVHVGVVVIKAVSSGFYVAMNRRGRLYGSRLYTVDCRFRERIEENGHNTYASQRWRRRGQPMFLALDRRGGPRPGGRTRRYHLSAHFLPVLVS
Numbers without * were called inactive; i = inactive; ? = inconclusive; / = not tested or not shown; & = joins results of further samples.

no. | compound | UCH37 inh | AF4-AF9 inh | HNF4A DNA FP | RanGTP-Impb inh | E coli growth | Vif A3G | FGF22 binding
1 | COc1ccc(CN2CCN(c3ccccc3)CC2)c(C)c1C | 2.9 | / | 2.3 | -2.5 | 0.73 | 5% | /
2 | CCCCS(=O)(=O)N1CCN(C(=N)N[N+](=O)[O-])CC1 | 1.1 | -3.0 | -1.8 | 0.2 | 0.68 | -16% | i
3 | O=C(N/N=C/c1c(O)n(Cc2ccccc2)c(=O)[nH]c1=O)c1ccccc1O | -20 | / | 0.5 | 3.4 | 0.7 | / | /
4 | O=C1NC(=O)N(C2CCCCC2)C(=O)C1C1c2ccccc2C(=O)N1Cc1ccccc1 (stereo unspecified) | 0.9 | / | 1.3 | 0.1 | 0.67 | 71% | /
5 | CCN1CCN(Cc2cc3c(cc2[N+](=O)[O-])OCO3)CC1 | 5.5 | -2.0 | -2.7 | 4.8 | 0.67 | / | i
6 | CCCCN1CCC(O)(c2ccccc2)C(C(=O)c2ccccc2)C1 (stereo unspecified) | 1.5 | / | 3.4 | 5.0 | 0.66 | 21% | /
7 | COc1cccc(-c2cc(C(F)(F)F)n3nc(C(=O)N4CCC5(CC4)OCCO5)cc3n2)c1 | -19 | / | 0.9 | -3.5 | 0.7 | 0% | /
8 | CC(=O)Nc1ccc(OC(=O)N(C)c2ccccc2)cc1 | 2.5 | / | -2.5 | -0.9 | 0.71 | 16% | /
9 | Cc1ccc(CN2CCN(Cc3ccccc3F)CC2)cc1 | 6.8 | 6.5 | 1.8 | -3.6 | 0.68 | 22% | i
10 | O=P(C(Cl)Cl)(N1CCOCC1)N1CCOCC1 | 0.4 | -4.6 | 0.7 | -0.7 | 0.67 | / | i
11 | C=CCn1c(O)c(/C(CC)=N/NC(=S)Nc2ccccc2)c(=O)[nH]c1=O | 0.7 | 2.5 | 2.1 | -2.6 | 0.65 | 4% | i
12 | CC(Cc1ccccc1)/[N+]([O-])=C\c1ccc(C(F)(F)F)cc1 (stereo unspecified) | 5.9 | -2.8 | 2.4 | 4.2 | / | / | i
13 | Cc1ccc(O)c(CN2CCC3CCC(C3)C2)c1 (stereo unspecified) | 1.1 | 5.5 | -1.6 | / | 0.69 | -4% | i
14 | O=c1[nH]c(=O)n(Cc2ccco2)c(O)c1C=NCCN1CCNCC1 | 3.7 | -0.2 | 3.8 | 0.0 | 0.71 | 15% | i
15 | Cc1ccc(N2C(=O)/C(=C/c3ccc(CN(CCC#N)S(C)(=O)=O)o3)C(=O)NC2=S)cc1 | 6.6 | / | -7.3 | -8.6 | 0.75 | 8.3µM* | /
16 | CN1CCCC(C(=O)c2ccc(-c3ccccc3)cc2)C1 (stereo unspecified) | 4.0 | 8.5 | -0.1 | 1.2 | 0.64 | / | i
17 | COC(=O)C1=C(c2ccc(OC(F)(F)F)cc2)C[C@@H]2CC[C@H]1N2C(=O)NCCO | -0.4 | -3.2 | 1.3 | / | / | / | i
18 | Cc1ccc2c(c1)N(C(C)C(=O)N1CCC3(CC1)OCCO3)C(=O)CO2 (stereo unspecified) | 7.0 | -3.3 | 3.0 | 3.9 | 0.68 | / | i
19 | C[C@]12CCC(=O)C[C@H]1CC[C@@H]1[C@@H]2CC[C@]2(C)C(=O)CC[C@@H]12 | 1.6 | -0.8 | 0.8 | / | 0.74 | / | i
20 | O=c1[nH]c(=O)n(Cc2ccc(F)cc2)c(O)c1C=NCCCn1ccnc1 | 0.4 | / | -1.2 | 4.7 | 0.67 | 0% | /
21 | CCN1CCC2(CCNC2)C1 (stereo unspecified) | 0.7 | / | -1.2 | 1.0 | 0.65 | 7% | /
22 | CCN1C(=O)NC(=O)C2(CCCC2)C1=O | -0.2 | -0.1 | -2.4 | / | 0.67 | -9% | i
23 | COc1ccc(CCn2c(O)c(C=NC3CC3)c(=O)[nH]c2=O)cc1OC | 2.8 | / | 1.7 | -0.6 | 0.7 | 11% | /
24 | C#C[C@]1(O)CC[C@H]2[C@@H]3CCC4=CC(=O)CC[C@]4(C)[C@H]3CC[C@@]21C | 1.8 | -6.8 | -0.7 | 2.0 | / | ? | i
25 | Cn1c(O)c(C(=Nc2ccccc2)SCc2ccc(Cl)cc2)c(=O)n(C)c1=O | 3.1 | 1.6 | 14 | 2.0 | 0.61 | 31% | i
26 | NS(=O)(=O)c1cccc(N2CCNCC2)c1 | 2.7 | 1.4 | 1.4 | 2.8 | 0.7 | ? | /
27 | COc1ccc(/C=C2\C(=O)NC(=O)N(Cc3ccccc3)C2=O)c(OC)c1OC | 1.1 | -10 | 0.5 | -1.9 | 0.68 | / | i
28 | O=P(O)(O)COc1ccccc1O | 0.2 | -40 | -2.0 | 0.5 | 0.71 | 9% | i
29 | CC(=O)N1CCCSC1=Nc1ccccc1 | 0.2 | -0.3 | 5.5 | 0.6 | 0.71 | 2% | i
30 | Cc1ccc(NP(=O)(Oc2ccccc2)Oc2ccccc2)cc1 | / | 3.7 | -0.6 | / | / | 8% | i
31 | CCCCn1c(N)c(N(CCOC)C(=O)CN2CC=C(c3ccccc3)CC2)c(=O)[nH]c1=O | 1.7 | 1.0 | 0.8 | -4.4 | 0.69 | 11% | i
32 | COC(=O)C1=C(c2ccc(F)cc2OCc2ccccc2)C[C@@H]2CC[C@H]1N2C(=O)NCc1cccc(OC)c1 | 1.4 | -0.4 | -2.1 | / | / | / | i
33 | Cc1cc(=O)oc2cc(OCC(=O)N3C[C@H]4C[C@@H](C3)c3cccc(=O)n3C4)ccc12 | -2.0 | -2.0 | 1.8 | 3.3 | 0.71 | / | i
34 | CCNC(=O)[C@H]1O[C@@H](n2cnc3c(N)ncnc32)[C@H](O)[C@@H]1O | 2.7 | -5.9&4.3 | 4.1 | -3.1 | / | -6% | i
35 | CN(C)C(=O)Oc1ccc2c(=O)c(Oc3ccccc3Br)coc2c1 | 3.8 | -1.5 | 2.6 | 0.4 | 0.65 | -4% | i
36 | O=C(c1cc2c(s1)CCCC2)N1CCC2(CC1)OCCO2 | 0.6 | / | 1.0 | ? | 0.68 | 3% | /
37 | C[C@]12CCC(=O)C=C1C=CC1C2CC[C@@]2(C)C1CC[C@@H]2O (stereo partly specified) | 2.6 | -1.4 | -1.1 | / | 0.71 | -8% | i
38 | Cc1cc(C)nc(N2Cc3ccccc3C2=N)n1 | 0.6 | -1.6 | 2.2 | -1.6 | 0.63 | -6% | i
39 | NS(=O)(=O)c1ccc(N2CCNCC2)cc1 | 3.6 | -2.5 | 1.6 | 2.7 | 0.63 | ? | i
40 | COC(=O)N1Cc2ccccc2-n2nncc2C1 | / | -2.8 | 0.5 | / | / | -2% | i
41 | CC(C)Oc1ccc(C2(C#N)CC[N+](C)(C)CC2)cc1 | 2.2 | / | -2.4 | -3.2 | 0.69 | / | /
42 | O=C(Nc1ccc(C(=O)O)cc1)Oc1ccc(N(CCCl)CCCl)cc1 | / | -0.5 | 1.5 | / | / | / | i
43 | COc1ccc(C)cc1NC1=NC(C)(C)CS1 | 3.8 | -4.3 | -2.0 | 1.6 | 0.67 | -8% | i
44 | O=C(c1cccc(Cl)c1)C1CCCN(Cc2cccc3cnccc23)C1 (stereo unspecified) | -1.8 | 0.9 | 3.4 | -1.1 | 0.66 | 6% | i
45 | C=COCCn1c(C)c(C(C)=O)c2cc(O)ccc21 | 3.0 | -1.8 | 1.0 | -5.9 | 0.62 | -9% | i
46 | Cc1ccccc1CN1CCN(C(=O)Cc2ccccc2)CC1 | 2.0 | 0.0 | 2.6 | -0.2 | 0.69 | -8% | i
47 | Brc1ccccc1CNCCc1ccc2c(c1)OCO2 | 1.3 | 3.2 | 3.9 | 8.5 | 0.61 | 2% | i
48 | CC(C)NS(=O)(=O)c1ccc(OCC(=O)N2CCN(C)CC2)cc1 | -1.5 | 2.1 | 2.1 | -5.7 | 0.74 | 1% | i
49 | Cc1cccc(C(O)(C(=O)O)c2ccccc2)c1 (stereo unspecified) | / | -4.7 | -5.1 | / | / | -7% | i
50 | CC(=O)c1c(C)n(Cc2ccccc2Cl)c2ccc(O)cc12 | 2.3 | 0.5 | 1.8 | -0.4 | 0.72 | 29% | i

Further compounds
no. | compound | UCH37 inh | AF4-AF9 inh | HNF4A DNA FP | RanGTP-Impb inh | E coli growth | Vif A3G | FGF22 binding
51 | Cc1cccc(-n2c(C)nc3ccccc3c2=O)n1 | 0.8 | / | 1.3 | 1.9 | 0.68 | 1% | /
52 | COC1C(C)OC(OC2CC(C)(O)Cc3cc4c(c(O)c32)C(=O)c2c(O)cc3c(c2C4=O)OC2OC3(C)C(O)C(N(C)C)C2O)C(OC)C1(C)OC (stereo unspecified) | / | 5.6 | -109 | / | / | 5% | i
53 | COC(=O)C1=C(c2cccc(OCc3ccccc3)c2)C[C@@H]2CC[C@H]1N2C(=O)NCc1cccc(F)c1 | 4.0 | -0.2 | 3.9 | / | / | / | i
54 | COc1ccc(C=O)cc1 | -3.6 | / | 2.5 | / | 0.68 | / | /
55 | CC(=O)N1Cc2cnnn2-c2ccccc2C1(C)C#N (stereo unspecified) | / | -1.1 | 3.6 | / | / | 2% | i
56 | O=P1(NC2CCCC2)COc2ccccc2OC1 | 0.7 | / | 1.0 | -2.2 | 0.69 | 66% | /
57 | CCOC(=O)C(NC(=O)C(Cc1ccc(N(CCCl)CCCl)cc1)NC(C)=O)C(C)C (stereo unspecified) | 1.2 | -1.0 | -4.8 | 2.0 | 0.71 | 22% | i
58 | CC(C)COP(=O)(OCC(C)C)C(O)c1cccnc1 (stereo unspecified) | 4.1 | / | -3.5 | 0.8 | 0.7 | 2% | /
59 | COc1ccc(C(c2nnnn2Cc2ccccc2)N2CCC(n3c(=O)[nH]c4ccccc43)CC2)cc1 (stereo unspecified) | / | 3.2 | -5.4 | / | / | / | i
60 | O=C1CC(=O)N(c2ccccc2F)C(=O)N1 | 0.9 | -3.3 | 4.0 | -3.2 | 0.65 | -3% | i
61 | O=C(CCc1ccccc1)N1Cc2cc(N3CCCCC3)ccc2-n2nncc2C1 | / | 3.4 | 7.7 | / | / | / | i
62 | O=NN(CCF)C(=O)NC1CCC(=O)NC1=O (stereo unspecified) | / | -2.2 | 4.7 | / | / | / | i
63 | C[C@H]1CC[C@@]2(C)[C@@H](CC[C@@H]3[C@@H]2CC[C@]2(C)[C@@H](O)CC[C@@H]32)C1 | 3.8 | -5.6 | -0.1 | 1.1 | 0.7 | 12% | i
64 | CCOC(=O)[C@]12Cc3c(cc(OC)c(OC)c3OC)[C@H]1N(C)C(=O)c1ccccc12 | / | -1.4 | 5.5 | / | / | / | i
65 | COC(=O)C1=C(c2ccc(OC)c(OC)c2)C[C@@H]2CC[C@H]1N2C(=O)NC(C)C | -1.8 | -2.9 | -0.5 | / | / | / | i
66 | O=c1[nH]c(=O)n(Cc2ccccc2Cl)c(O)c1C=Nc1ccc(F)cc1 | -21 | / | 3.9 | -2.1 | 0.73 | / | /
67 | Cc1ncc([N+](=O)[O-])n1CCOC(N)=O | 4.0 | 3.5 | 1.2 | -0.3 | 0.66 | / | i
68 | CCC1(CCO)C(=O)NC(=S)NC1=O | 0.4 | -1.1 | -3.2 | / | 0.67 | -5% | i
69 | Oc1ccccc1Cl | 3.0 | -1.6 | -6.7 | / | 0.69 | / | i
70 | CCCCn1c(O)c(C(C)=NCc2ccco2)c(=O)[nH]c1=O | 5.5 | -0.4 | 1.4 | 0.6 | 0.65 | ? | i

Some of the compounds tested (hit frequency here may not be typical).
